# From PubChem BioAssay
# WNV protease inh: inhibitors of West Nile virus NS2B-NS3 protease; P06935; WNV NS2B-NS3 protease, fluorogenic substrate Ex360/Em465; stronger effect = lower value; z-score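 (tested at a level between 10 and 100 µM)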; 0.18% of 65,000 active; AID 577;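 active means z-score at -3 or under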;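 further: score is relative to mean and spread of the compound wells of a plate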
# Target sequence (P06935 1371-1501 limits assumed): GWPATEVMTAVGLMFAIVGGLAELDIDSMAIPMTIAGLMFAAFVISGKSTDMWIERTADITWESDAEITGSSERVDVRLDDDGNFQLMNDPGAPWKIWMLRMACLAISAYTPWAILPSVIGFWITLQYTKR
# Target sequence (P06935 1502-1679 limits assumed): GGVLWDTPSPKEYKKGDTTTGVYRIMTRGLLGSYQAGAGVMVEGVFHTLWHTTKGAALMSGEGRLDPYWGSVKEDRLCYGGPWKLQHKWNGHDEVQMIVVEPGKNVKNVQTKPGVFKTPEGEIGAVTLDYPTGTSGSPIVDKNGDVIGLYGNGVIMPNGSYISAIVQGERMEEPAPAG
# MT1-MMP reporter: inhibitors of MT1-MMP promoter transcription, cell-based, luciferase reporter, luminescence (AID 618). MT1-MMP promoter luciferase reporter cells, luminescence. calls from a first round at 10 µM; hits with a dose series show EC50 in µM. 0.62% of 87,000 active;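 active means over half of the reporter light lost at 10 µM or EC50 under 50 µM; inactive means the rest and hits that failed the dose series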;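 further: actives suppress MT1-MMP promoter-driven transcription so potencies describe inhibitors; HT1080 fibrosarcoma cells; overnight exposure; toxic or luciferase-blocking compounds were not removed from the actives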
# Hsc70 ATP site: small molecules displacing fluorescent ligand from Hsc70 – biochemical, fluorescence polarization, primary screen (AID 568); Hsc70 fluorescence polarization, probe displacement; higher % means a stronger effect; strong numbers were not always called active; one-dose displacement, % at 20 µM; IC50 in µM for titrated hits; 83,000 tested, under 10 active;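 active means displacement above 50% without optical interference and an IC50 on retest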;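 further: ATPase domain with a fluorescein-tagged ATP probe; 0% = vehicle and 100% = excess ADP; read after one hour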
# Numbers without * were called inactive; i = inactive; · = no result given. An unsorted share of the library (roughly 0.8% active in at least one column).
structure	WNV protease inh	MT1-MMP reporter	Hsc70 ATP site
O=C(O)c1ccc(CSc2nnc(COc3ccc(Cl)cc3Cl)o2)cc1	-1.3	i	-1.5%
O=C(NCCCCCNC(=O)c1cccnc1)c1cccnc1	0.28	i	1.3%
COc1cccc(-n2nnc3c(=O)n(CC(=O)N4CCCc5ccccc54)cnc32)c1	-0.6	i	-7.6%
COCCN(CCOC)C(=O)c1cc2sc3ccccc3c2s1	-0.81	i	2.3%
O=C(c1ccc2c(c1)OCO2)n1nnc2ccccc21	-0.78	i	-9.5%
O=C(COC(=O)c1cccc(S(=O)(=O)N2CCOCC2)c1)Nc1ncc(C(F)(F)F)cc1Cl	·	i	-7.4%
O=C(NCCCN1CCCCCC1)c1ccc2c(c1)NC(=O)C(N1CCOCC1)S2 (stereo not given)	2	i	3.1%
COC(=O)c1ccc(NC(=O)COc2ccccc2OC)cc1	0.08	i	1.3%
COC(=O)c1ccc(CSc2nc3ccccc3s2)o1	0.88	i	-5.0%
O=C(Nc1nnc(-c2ccccc2)s1)c1cccc(S(=O)(=O)N2CCOCC2)c1	·	i	-1.3%
O=C(OCC(=O)c1ccccc1Br)c1ccccn1	0.35	i	0.7%
O=C(c1ccccc1)[C@H]1CC=CC[C@H]1C(=O)O	·	i	-1.5%
N/C(=N\OC(=O)Cc1ccccc1)c1ccccn1	·	i	4.6%
O=C1c2ccccc2C(=O)N1Cc1nc(-c2cccnc2)no1	0.93	i	1.8%
COc1cccc(-c2nnc(SCC(=O)Nc3cc(C)on3)n2C)c1	·	i	2.6%
O=C(Nc1cccc(C(F)(F)F)c1)NC1CCN(S(=O)(=O)c2ccc(F)cc2)CC1	·	i	3.6%
O=C1C2C3C=CC(C4CC34)C2C(=O)N1/N=C/c1ccc(-c2ccccc2[N+](=O)[O-])o1 (stereo not given)	·	i	-1.3%
Cn1c(=O)c2c(SCC(=O)N3CCCc4ccccc43)nc(CC(C)(C)C)nc2n(C)c1=O	0.96	i	3.3%
CCSc1nc2ccccc2n1Cc1ccccc1F	·	i	1.1%
COc1ccc(NS(=O)(=O)c2ccc(OCC(=O)N3CCOCC3)cc2)cc1	·	i	-3.6%
Cc1nc(S(=O)(=O)c2ccc(Cl)cc2)c(NCc2ccccc2)o1	-1.1	i	1.0%
Cn1c(NCc2ccccc2)nc2c1c(=O)n(Cc1ccccc1)c(=O)n2C	-0.44	i	-10%
CC1(C)CC(=O)C2=C(C1)Oc1ncn(Cc3ccco3)c(=N)c1C2c1ccccc1 (stereo not given)	0.62	i	-3.2%
Cc1ccnc(NC(=O)COc2ccc3oc4c(c3c2)CCCC4)c1	1.7	i	-0.5%
N#Cc1ccc(C(=O)Nc2ccc(N3CCN(C(=O)c4ccco4)CC3)cc2)c(F)c1	·	i	1.6%
Cc1ccc(NC(=O)CN(c2ccccc2F)S(C)(=O)=O)cc1	-1.3	i	2.8%
CCCCn1c(SCC(=O)NCc2ccco2)nnc1-c1ccco1	0.24	i	-3.5%
O=C(CCN1C(=O)c2ccccc2C1=O)Nc1ccccn1	0.07	i	-3.7%
COc1ccc(N2CCN(C(=O)c3ccncc3)CC2)cc1	·	i	5.4%
CSCCC(NC=C1C(=O)OC(C)(C)OC1=O)C(=O)O (stereo not given)	-0.49	i	-6.9%

# The list goes on:
structure	WNV protease inh	MT1-MMP reporter	Hsc70 ATP site
Cn1c(=O)c2c(nc(SCCOc3ccc4ccc(=O)oc4c3)n2C)n(C)c1=O	0.66	i	1.1%
Cn1c(CN2CCOCC2)nnc1SCC(=O)Nc1nccs1	-0.2	i	3.8%
CC(C)(C)C(=O)NC1(C(F)(F)F)N=C2SCCN2C1=O (stereo not given)	·	i	3.4%
COc1ccc(CNC2CC(=O)N(C)C2=O)cc1 (stereo not given)	-0.58	i	0.9%
CCOC(=O)C1CCN(C(=O)CN2C(=O)C(CC)Oc3ccccc32)CC1 (stereo not given)	-1.2	i	-2.0%
O=C(NCc1ccccn1)C1CC(=O)N(C2CCCC2)C1 (stereo not given)	0.37	i	8.1%
O=C(Nc1ccc(S(=O)(=O)Nc2nccs2)cc1)C1CCCCC1	-0.31	i	2.3%
CNc1nc(N2CCc3ccccc32)ncc1F	0.65	i	0.1%
Cc1ccc(-c2noc(CCC(=O)Nc3cc(C)ccn3)n2)cc1	0.28	i	-8.0%
CCn1c(=S)sc2c(=O)[nH]c(C)nc21	-0.81	i	-4.6%
Fc1cccc(Cl)c1CSc1nnnn1-c1ccc2c(c1)OCO2	2	i	-0.8%
CCn1c(Cc2ccccc2)nnc1SCC(=O)Nc1ccc2c(c1)OCO2	1.9	i	1.8%
Cc1cnc(C(=O)OCC(=O)c2csc(N3CCCCC3)n2)cn1	-0.04	i	-2.4%
COCCCNC(=O)Nc1ccc(F)cc1F	0.44	i	5.9%
CCn1cc(C(=O)NCCC2=CCCCC2)c(=O)c2cc(S(=O)(=O)N(C)C)ccc21	0.01	i	7.5%
COc1cc(CNCC(C)C)c(Br)cc1OCC(=O)NCc1ccccc1	·	i	-1.6%
O=C(NCc1ccco1)c1ccc2c(=O)n(Cc3ccco3)c(SCC(=O)N3CCCC3)nc2c1	-0.98	i	-3.0%
CCCn1nnnc1NCc1ccccc1OCc1cccs1	-0.08	i	4.4%
Cc1ccc(S(=O)(=O)NCC(=O)N2CCOCC2)cc1	-0.01	i	3.3%
CC1CCCN(C(=O)CSc2nc3ccccc3o2)C1 (stereo not given)	·	i	-2.7%
COc1ccc(OC)c(C2=NOC(C(=O)NCC3CCCO3)C2)c1 (stereo not given)	0.97	i	-1.0%
Cn1c(=O)[nH]c(=O)c2c1nc(CN1CCOCC1)n2Cc1ccccc1	-0.96	i	2.8%
CCOc1ccccc1N1CCN(C(=O)c2cccc(-c3ccc(O)cc3)c2)CC1	0.83	i	-3.3%
Cc1ccc(S(=O)(=O)N(C)c2ccc(C(=O)N3CCCCC3)cc2)cc1	·	i	-2.8%
CC(NC(=O)Nc1ccccc1)C(c1cccs1)N1CCOCC1 (stereo not given)	0.00029	i	-2.3%
Cc1c(C(=O)NCc2cccs2)oc2ccc(S(=O)(=O)N3CCOCC3)cc12	1.1	i	-3.5%
COc1ccc(CNC(=O)C2CCN(S(=O)(=O)c3cccc4cccnc34)CC2)cc1	-0.51	i	3.1%
COc1ccc(C2C3=C(CC(C)(C)CC3=O)Oc3ncn4nc(-c5cccnc5)nc4c32)cc1 (stereo not given)	0.69	i	-4.6%
CCCc1ccc2c(N)c(C#N)sc2n1	-0.38	i	-1.4%
COc1cccc(N(CC(=O)NCCSc2ccc(Cl)cc2)S(C)(=O)=O)c1	·	i	-0.9%

# Copied from the results shown (4 entries):
structure	WNV protease inh	MT1-MMP reporter	Hsc70 ATP site
COc1ccc(CNC(=O)C2CCN(S(=O)(=O)c3cccc4cccnc34)CC2)cc1	-0.51	i	3.1%
COc1ccc(C2C3=C(CC(C)(C)CC3=O)Oc3ncn4nc(-c5cccnc5)nc4c32)cc1 (stereo not given)	0.69	i	-4.6%
CCCc1ccc2c(N)c(C#N)sc2n1	-0.38	i	-1.4%
COc1cccc(N(CC(=O)NCCSc2ccc(Cl)cc2)S(C)(=O)=O)c1	·	i	-0.9%

# Next part.
structure	WNV protease inh	MT1-MMP reporter	Hsc70 ATP site
CS(=O)(=O)Nc1ccccc1C(=O)O	-2.7	i	-1.6%
CC1=C(C)CC(C(=O)NCC(=O)c2ccccc2)C(C(=O)O)C1 (stereo not given)	·	i	-5.7%
O=C(COc1cccc2ccccc12)Nc1nc2ccccc2[nH]1	·	i	-0.4%
CCCCn1c(CN2CCN(C)CC2)nc2ccccc21	-0.91	i	3.8%
COC(=O)c1ccc(NS(=O)(=O)c2cc(C)ccc2OC)cc1	-0.92	i	-2.2%
CCCCc1ccc(-c2nc(-c3ccncc3)no2)cc1	2.9	13µM*	-4.8%
COCc1cc(=O)n2[nH]c(C)nc2n1	-0.24	i	3.0%
O=C(Nc1ccncc1)c1c(F)cccc1F	0.64	i	5.0%
Cn1c(C(=O)N2CCC(C(=O)N3CCN(Cc4ccc5c(c4)OCO5)CC3)CC2)cc2sccc21	-0.41	i	0.0%
CCOC(=O)C(NC(=O)CC)(Nc1ccc(S(=O)(=O)Nc2cc(C)on2)cc1)C(F)(F)F (stereo not given)	-0.46	i	2.6%
CCOC(=O)CSc1nnc2n(C3CCCCC3)c(=O)c3c4c(sc3n12)CCCC4	-0.66	i	6.9%
O=c1[nH]c2ccc(Cl)cc2c(-c2ccccc2)c1SC(=S)N1CCCCC1	·	i	5.3%
N#CC1=C(SCc2ccc(C#N)cc2)N=C(N)C(c2nc(-c3ccccc3)cs2)C12CCCCC2 (stereo not given)	·	i	-9.7%
COC(=O)c1cc(Cc2ccc(N)c(C(=O)OC)c2)ccc1N	-0.24	i	-0.4%
COc1ccc(S(=O)(=O)N2CCCC2C(=O)Nc2ccc(C(C)=O)cc2)cc1 (stereo not given)	0.44	i	0.9%
O=C(OCc1cc(=O)n2c(n1)sc1ccccc12)c1ccc2c(=O)n3c(nc2c1)CCC3	-2.5	i	4.3%
c1ccc2nc(N3CCOCC3)c(N3CCOCC3)nc2c1	-0.13	i	-0.1%
O=C(N/N=C/c1ccc([N+](=O)[O-])s1)c1cccc(Br)c1	·	i	-0.8%
Fc1ccc(CN2CCCCCC2)c(F)c1	0.13	i	1.0%
COc1cccc(Nc2nnc(SCC(=O)N3CC(C)OC(C)C3)s2)c1 (stereo not given)	-0.08	i	-0.1%
Cc1cccc(C)c1NC1=NC(C)(C)N=C(N)N1	-0.31	i	9.0%
CC(C)Cn1c(N)c(C(=O)COC(=O)c2ccncc2)c(=O)n(C)c1=O	-0.8	i	-3.0%
Cc1onc(-c2c(Cl)cccc2Cl)c1C(=O)N1CCc2ccccc2C1	·	i	7.4%
O=C(c1ccccc1)c1c[nH]c2cc3c(cc2c1=O)OCCO3	-0.45	i	3.2%
CN1CCN(c2ncnc3c2sc2nc(N4CCCC4)c4c(c23)CC(C)(C)OC4)CC1	1.6	i	-4.2%
Cc1c(-n2cc(C(=O)c3ccccc3O)cc(C#N)c2=O)c(=O)n(-c2ccccc2)n1C	-0.65	i	9.2%
Cc1cc(C)n(CC(=O)NCc2cc(-c3nn(C)c(=O)c4ccccc34)ccc2C)n1	-0.1	i	-1.1%
O=c1nc(N2CCCCC2)nc2n1CCO2	1.5	i	-4.6%
Cc1ccc(CNC(=O)CC2C(=O)Nc3c2c(=O)n(C)c(=O)n3Cc2ccccc2)cc1 (stereo not given)	·	i	-0.5%
O=C(c1ccco1)N1CCN(C(c2cccs2)c2nnnn2C2CCCCC2)CC1 (stereo not given)	-0.72	i	-5.2%

# (further entries)
structure	WNV protease inh	MT1-MMP reporter	Hsc70 ATP site
Cn1c(C(=O)Nc2ccc3c(c2)OCO3)cc2c(=O)n(C)c3ccccc3c21	-1	i	2.0%
CCOC(=O)N1CCN(C(=O)c2cc(-n3cnnc3)ccc2Cl)CC1	1.2	i	-3.0%
O=C(COC(=O)Cn1c(C(F)(F)F)nc2ccccc21)Nc1ccc2c(c1)OCCO2	·	i	-0.7%
O=C(CCNC(=O)c1ccc(Br)o1)NCc1ccccc1Cl	-0.75	i	1.2%
O=C(Nc1cccnc1)c1cccc(NC(=O)c2ccco2)c1	0.73	i	7.2%
CCC(C)C(=O)Nc1nc(-c2ccc3c(c2)NC(=O)CO3)cs1 (stereo not given)	·	i	-1.8%
CCn1c(=O)c(C(=O)CN2CCCc3ccccc32)c(N)n(Cc2ccccc2)c1=O	-0.03	i	-7.6%
COC(=O)C(C(=O)Nc1ccc(OC)cc1)C1CCCCCC1 (stereo not given)	1.8	i	4.6%
c1ccc(OCc2nn3c(-c4ccncc4)nnc3s2)cc1	0.9	i	0.5%
CCN1CCN(c2cc(=O)n(-c3cc(Cl)ccc3C)c(=O)[nH]2)CC1	0.92	i	-6.6%
CC(=O)c1c(C)[nH]c(C(=O)NCCC2=CCCCC2)c1C	-1.1	i	-12%
CCCc1nnc2n1N=C(c1ccc(-c3cc(Cl)ccc3Cl)o1)CS2	-0.74	i	-9.5%
C=CCNc1ncnc2c1[nH]c1ccc(C)cc12	-0.73	i	1.8%
CCCCN(CC)c1nc(N)c(C#N)c(CC#N)c1C#N	·	i	-2.2%
COc1ccc(-n2c(COc3ccccc3)nnc2SCC(N)=O)cc1	-0.49	i	3.7%
Cc1ccc(S(=O)(=O)Cn2nnnc2CN2CCCC3(CCCCC3)C2)cc1	-0.65	i	3.1%
Oc1ccccc1CN1CCCN(Cc2ccccc2O)C1	-0.45	i	3.4%

# An excerpt from above, limited to Hsc70 ATP site and WNV protease inh:
SMILES | Hsc70 ATP site | WNV protease inh
CSCCC(NC=C1C(=O)OC(C)(C)OC1=O)C(=O)O (stereo not given) | -6.9% | -0.49
Cn1c(=O)c2c(nc(SCCOc3ccc4ccc(=O)oc4c3)n2C)n(C)c1=O | 1.1% | 0.66
Cn1c(CN2CCOCC2)nnc1SCC(=O)Nc1nccs1 | 3.8% | -0.2
